# Screening results (PubChem)
# miR-21 reporter – miR-21 reporter, rising signal. HeLa miR-21 FLuc reporter, luciferase, 48 h. Potency, µM (highest dose often 38.3 µM), without a hit: at the highest dose reporter change, positive = more light. 340,000 tested, under 10 active. AID 2288; active = well fitted rising curve with a large enough effect; inconclusive = small, poorly fitted or top-dose-only effect; inactive = no such curve, though single readings can be large or run the other way;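 note: % of control where 0% means no effect; miR-21 action dims this reporter so a rising signal means less miR-21 action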
#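 HeLa miR-21-FLuc reporter line, endogenous miR-21; 2000 cells/well in DMEM/10% FBS; compound titration up to ~40uM final, 48 h, 37 degree Celsius; luciferase detection reagent, 15 min lysis, CCD luminescence.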
# Rango release inh – inhibitors of RanGTP-induced Rango-importin beta complex dissociation; O95149+P62826; Biochemical FRET Rango-importin beta, RanGTP-induced dissociation; Potency, µM (doses to about 46.1 µM), for inactives: top-dose activity change, negative = inhibition; actives 0.071% (n = 340,000); AID 540253; active means falling FRET ratio curve, often poorly fitted, with flat reads before Ran was added; inconclusive means other falling curves, or compound fluorescence or quenching; inactive means flat or rising ratio curve;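 note: potency is the fitted concentration of half-maximal effect; % of control where 0% means no effect; nearly all actives have a fitted effect of over 45% in size; -100% = wells without RanGTP and RCC1; the record marks most hits as doubtful in a second field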
#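 Compounds preincubate 5 min with complex of recombinant Rango and importin beta in PBS with 1 mM DTT. Ran (0.6 uM) loaded with 2 mM GTP plus 0.2 uM RCC1 starts dissociation; FRET is recorded 45 min later.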
# Rango-impB inh – inhibitors of Rango-importin beta complex formation; Potency, µM (top dose mostly 92.2 µM), for the others: at the top dose inhibition of complex formation; Rango CFP/YFP FRET sensor + importin beta, 45 min; AID 540263; Q14974; actives 0.031% (n = 340,000); active = rising FRET ratio curve, often small or poorly fitted; inconclusive = mostly compound fluorescence or quenching in the first reads; inactive = flat curves in all reads;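 note: potency is the fitted concentration of half-maximal effect; 0% = DMSO wells and 100% = buffer wells lacking importin beta; nearly all actives have a fitted effect of over 15% in size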
#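 Inhibition scored from the CFP 486 nm/YFP 530 nm FRET ratio 45 min after adding 0.125 microM importin beta to 50 nM Rango biosensor preincubated 5 min with compound (room temperature, PBS with DTT, Tween-20, BSA). No-importin wells as positive control.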
# GLA inh pH 4.5 – blocks human alpha-galactosidase A at pH 4.5; 230,000 tested, under 10 active; purified enzyme, 4-MU-alpha-Gal fluorescence, pH 4.5; AID 1467; activity change, negative = inhibition, % at 105 µM; inconclusive = small, poorly fitted or top-dose-only inhibition, or a rising curve; inactive = flat fitted curve, though single readings scatter; no compound was filed as active;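 note: 0% = full activity with enzyme and -100% = basal without enzyme; dose as in the result columns while the protocol names 77 µM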
# Target sequence (P06280 whole entry, looked up): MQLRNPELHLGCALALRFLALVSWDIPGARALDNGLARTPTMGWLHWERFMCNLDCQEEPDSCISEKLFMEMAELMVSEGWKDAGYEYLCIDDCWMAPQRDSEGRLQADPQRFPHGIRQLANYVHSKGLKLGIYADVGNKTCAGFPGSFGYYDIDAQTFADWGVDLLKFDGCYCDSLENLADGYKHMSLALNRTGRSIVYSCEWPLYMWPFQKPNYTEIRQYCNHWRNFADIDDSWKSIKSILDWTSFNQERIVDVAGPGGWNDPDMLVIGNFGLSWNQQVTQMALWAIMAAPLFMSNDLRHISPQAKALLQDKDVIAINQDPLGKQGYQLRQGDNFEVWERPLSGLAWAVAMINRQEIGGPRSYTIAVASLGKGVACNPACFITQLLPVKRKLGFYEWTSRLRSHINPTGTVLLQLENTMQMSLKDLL
# Active calls of the source: *; u = inconclusive; x = not tested or not shown. Some of the compounds tested; rates above refer to the full screens.
SMILES,miR-21 reporter,Rango release inh,Rango-impB inh,GLA inh pH 4.5
CC(NS(=O)(=O)c1ccc(CCC(=O)N2CCN(C)CC2)cc1)c1ccccc1 (stereo not given),-2%,4%,-0.1%,6
COc1ccc(S(=O)(=O)Nc2cc(Cl)ccc2OC)cc1,26%,5%,0.0%,-1
CN(C)C(=S)Nc1ccc(Br)cc1Cl,-9%,-12%,4.8%,1
O=C(CN(C(=O)CCC(=O)Nc1ccccn1)c1ccc(F)cc1)NCc1ccco1,1%,11%,-0.9%,x
CCCCCCOC(=O)Cc1c(C)nc(N)[nH]c1=O,-8%,7%,5.2%,2
O=S(=O)(NCCCO)c1ccc2c(c1)Cc1cc(S(=O)(=O)NCCCO)ccc1-2,-3%,0%,0.8%,14
O=C(O)CCC(NS(=O)(=O)c1ccc(N2CCCC2=O)cc1)C(=O)O (stereo not given),-5%,4%,-3.8%,2
CCOc1ccc(Nc2nc3ccccc3n2C)cc1,x,2%,4.1%,x
Cc1occc1C(=O)NNC(=O)C(c1ccccc1)c1ccccc1,-8%,20%,-0.8%,-18
COc1ccc(CCNC(=O)C2CCC(=O)N2Cc2ccccc2Cl)cc1OC (stereo not given),-2%,15%,0.2%,x
Cc1ccc(C(=O)N2CCCCC2C(=O)O)cc1S(=O)(=O)N1CCCCC1 (stereo not given),x,-8%,0.0%,x
Cn1[nH]cc(C=NC(N)=O)c1=O,x,1%,2.5%,x
Cc1ccccc1OC(C)C(=O)N1CCC(Cc2ccccc2)CC1 (stereo not given),8%,-3%,-2.7%,x
C#CCOc1c(Br)cc(/C=C2/C(=O)ON=C2C)cc1OCC,-5%,0%,0.2%,x
C/C(=N\NC(=O)c1nc2ccccn2c1C)c1ccco1,-36%,1%,-1.3%,9
CCOC(=O)C1=C(C)N(CCCC(=O)O)C(=O)NC1c1ccc(Cl)cc1Cl (stereo not given),0%,-7%,-2.4%,x
CC(C)(C)c1ccc(/C=C2\SC(=O)N(CCNC(=O)c3cccc(S(=O)(=O)N4CCOCC4)c3)C2=O)cc1,13%,0%,-1.1%,-6
CCCCCCCCn1c2c(c(=N)c3ccccc31)CCC2,-1%,0%,-1.7%,2
Cc1nn(C(=O)CCC(=O)NCc2ccccc2Cl)c2ccccc12,0%,-7%,3.1%,x
CCCCCCOc1ccc(N2C(=O)CC(N3CCN(C(=O)c4ccco4)CC3)C2=O)cc1 (stereo not given),0%,-5%,-1.6%,-2
COc1ccccc1NC(=O)CN(Cc1ccco1)C(=O)c1cncc(Br)c1,1%,-1%,-0.2%,-8
COC(=O)N/N=C(\C)c1ccc(C)c([N+](=O)[O-])c1,-29%,18%,-7.3%,-2
Cc1ccc(S(=O)(=O)NCCN(CCNS(=O)(=O)c2ccc(C)cc2)S(C)(=O)=O)cc1,-1%,26%,2.4%,-3
COc1ccc(S(=O)(=O)N2CCCCC2)cc1N(C)S(=O)(=O)c1ccccc1,1%,-19%,2.0%,x
C[C@H](N=C1NS(=O)(=O)c2ccccc21)C(=O)OCc1cc([N+](=O)[O-])cc2c1OCOC2,-2%,-3%,-2.7%,-5
COc1cccc(NC(=O)CCN2C(=O)C3CC=CCC3C2=O)c1 (stereo not given),-38%,28%,-3.1%,x
COc1cc(/C=N\n2cnnc2)ccc1OCC(=O)Nc1ccc(C)cc1,-20%,32%,-1.4%,2
Cc1nnc(NC(=O)CCC(=O)N2CCN(S(=O)(=O)c3cc([N+](=O)[O-])ccc3C)CC2)s1,x,9%,-0.2%,x
C=CCOc1cccc(/C=N/NC(=O)CN(c2cc(Cl)ccc2OC)S(=O)(=O)c2ccc(C)c([N+](=O)[O-])c2)c1,-2%,16%,-1.5%,-2
COc1cc(C2NC(=S)NC(c3ccccc3)=C2C(C)=O)cc(Cl)c1OCC(=O)O (stereo not given),0%,0%,7.2%,5
CCN(CC(=O)Nc1ccc(NC(C)=O)cc1)S(=O)(=O)/C=C/c1ccccc1,x,15%,0.8%,x
N#Cc1cnn(-c2ncnc3sc4c(c23)CCCC4)c1N,0%,-11%,-0.4%,u
CC(OC(=O)CNC(=O)C12CC3CC(CC(C3)C1)C2)C(=O)Nc1ccc(S(N)(=O)=O)cc1 (stereo not given),-5%,-13%,4.7%,3
Cc1ccc(C(=O)NNC(=O)c2cccc(S(=O)(=O)N3CCN(c4ccccc4)CC3)c2)cc1,-9%,-4%,2.7%,0
Cc1cccc(C(=O)N2CCC(Cc3ccccc3)CC2)c1[N+](=O)[O-],13%,4%,5.4%,-22
S=C(Nc1cccc(Cl)c1Cl)N1CCCC1,-20%,29%,1.4%,x
CCOCCCNC(=O)c1oc2ccc(S(=O)(=O)N3CCOCC3)cc2c1C,4%,-14%,-1.9%,x
CCOc1ccc(N(CC(=O)N2CC=C(c3ccccc3)CC2)S(=O)(=O)c2c(C)noc2C)cc1,-7%,-14%,-0.2%,-12
C=CCN1C(=O)c2ccccc2NC1c1ccc(Br)s1 (stereo not given),-5%,-5%,-0.3%,x
CC(Oc1ccccc1Cl)c1nnc(N)s1 (stereo not given),-9%,-10%,0.5%,8

# One compound at a time, from the list above. Order of screens: miR-21 reporter | Rango release inh | Rango-impB inh | GLA inh pH 4.5
# C=CCN1C(=O)c2ccccc2NC1c1ccc(Br)s1 (stereo not given) in the list: -5% | -5% | -0.3% | x
# COc1ccc(S(=O)(=O)Nc2cc(Cl)ccc2OC)cc1 in the list: 26% | 5% | 0.0% | -1
# COc1ccccc1NC(=O)CN(Cc1ccco1)C(=O)c1cncc(Br)c1 in the list: 1% | -1% | -0.2% | -8
# Cc1ccc(C(=O)N2CCCCC2C(=O)O)cc1S(=O)(=O)N1CCCCC1 (stereo not given) in the list: x | -8% | 0.0% | x

# Additional compounds:
SMILES,miR-21 reporter,Rango release inh,Rango-impB inh,GLA inh pH 4.5
O=C(NCc1cccnc1)C1CC2c3ccccc3C1c1ccccc12 (stereo not given),-1%,9%,0.4%,0
Fc1ccc(-c2ccnc3nc(-n4cccc4)nn23)cc1,-8%,-1%,-0.6%,2
c1ccc2c(c1)NC1(CCCCC1)n1c-2nc2ccccc21,-13%,20%,-5.1%,14
O=C(OCc1cccc([N+](=O)[O-])c1)c1cccnc1,1%,-9%,2.4%,11
CCN(CC)S(=O)(=O)c1cc(NC(=O)Cn2ncc(Cl)c(Cl)c2=O)ccc1C,u,11%,-7.3%,2
Fc1cccc(CSc2nc3ncc(Cl)cc3[nH]2)c1,-23%,13%,-0.2%,0
CCC1(C)CC(CCN(Cc2ccco2)C(C)=O)(c2ccccc2)CCO1 (stereo not given),-2%,3%,1.2%,-1
CCN(CC)S(=O)(=O)c1ccc(C(=O)NCCc2cc3c(OC)ccc(OC)c3[nH]c2=O)cc1,1%,-25%,u,-19
COc1ccc(S(=O)(=O)N(C)C)cc1NS(=O)(=O)c1ccc(F)c(F)c1F,0%,0%,-1.4%,2
Cc1nc(N)nc(Cl)c1CCC1OCCO1,x,19%,-0.2%,x
CC(C)(C)N(NC(=O)Nc1ccc(Cl)c(Cl)c1)C(=O)c1ccccc1,u,-8%,0.3%,-19
O=C(C[n+]1cccc(CNC(=O)c2ccc(OC(F)F)cc2)c1)Nc1cccc(C(F)(F)F)c1,1%,14%,-2.3%,3
CC(=O)c1ccc(N2C(=O)CC(N3CCN(S(=O)(=O)c4ccc(C)c(C)c4)CC3)C2=O)cc1 (stereo not given),x,u,-0.1%,x
COc1ccc(C(=O)n2cnc3ccccc32)cc1,-2%,2%,-4.9%,x
COC(=O)c1ccc(/C=C(/NC(=O)c2ccccc2)C(=O)N2CCOCC2)cc1,1%,-9%,0.2%,x
Cc1cccc2sc(NC(=O)C3CCN(C(=O)c4ccco4)CC3)nc12,4%,9%,-2.7%,x
O=C(COC(=O)Cc1ccc(Cl)cc1Cl)Nc1ccccc1OC(F)F,-3%,11%,-0.6%,-1
COC1=C(Nc2ccc(C)cc2)C(=O)c2ccccc2C1=O,-50%,1%,-0.2%,-8
CCOC(=O)C(C(=O)Nc1cccc(C)c1)C1CCCCC1 (stereo not given),2%,-11%,3.4%,-3
COc1ccccc1NC(=O)C1=C(C)NC(SCC(=O)c2ccccc2)=C(C#N)C1c1ccco1 (stereo not given),2%,u,u,0

# 5 entries drawn at random from those above:
SMILES,miR-21 reporter,Rango release inh,Rango-impB inh,GLA inh pH 4.5
Fc1cccc(CSc2nc3ncc(Cl)cc3[nH]2)c1,-23%,13%,-0.2%,0
CCC1(C)CC(CCN(Cc2ccco2)C(C)=O)(c2ccccc2)CCO1 (stereo not given),-2%,3%,1.2%,-1
O=C(C[n+]1cccc(CNC(=O)c2ccc(OC(F)F)cc2)c1)Nc1cccc(C(F)(F)F)c1,1%,14%,-2.3%,3
COc1ccccc1NC(=O)C1=C(C)NC(SCC(=O)c2ccccc2)=C(C#N)C1c1ccco1 (stereo not given),2%,u,u,0
O=C(NCc1cccnc1)C1CC2c3ccccc3C1c1ccccc12 (stereo not given),-1%,9%,0.4%,0

# Next compounds
SMILES,miR-21 reporter,Rango release inh,Rango-impB inh,GLA inh pH 4.5
CCOc1ccc(N2C(=O)CC(NC3CCN(C(=O)c4cccs4)CC3)C2=O)cc1 (stereo not given),-2%,15%,-3.2%,x
O=C(Cn1nc(Cc2cccnc2)c2ccccc2c1=O)Nc1cc(F)ccc1F,-8%,8%,-8.3%,-8
Cc1cc(=O)n(C)c(=O)n1CCCNc1ccccc1,8%,0%,-3.4%,-15
Cc1ccc(Nc2nc(=O)[nH]nc2C)cc1,-4%,-19%,2.6%,-1
Cc1ccc(CN2CC(C(=O)NCCC3=CCCCC3)CC2=O)cc1 (stereo not given),x,-2%,6.5%,x
CCN(CC)S(=O)(=O)c1ccc(N2C(=O)Nc3ccccc3N2O)cc1,-5%,15%,3.2%,1
CCCOc1ccc(N/C=C/C(=O)C(C)(C)C)cc1,-6%,2%,0.8%,1
COc1cc(C(=O)NCCOc2cc(C)cc(C)c2)cc(OC)c1OC,18%,10%,1.5%,x
CC(C)=N/N=C(\N)SCc1ccccc1,-26%,-4%,3.7%,8
Cc1ccc(Cn2nnc(C(=O)Nc3cccc(C)c3C)c2N)cc1,1%,1%,2.4%,4
C/C(=N/NC(=O)c1nnn(-c2nonc2N)c1COc1ccccc1)c1ccccc1Cl,0%,-3%,0.7%,x
CC1CCN(C(=O)/C(=C/c2ccccc2Cl)c2ccccc2)CC1,-1%,-1%,0.1%,-3
O=C(O)COc1ccccc1/C=N/NC(=O)CSc1nnc(SCc2cccc3ccccc23)s1,1%,17%,-0.5%,-17
N#Cc1ccccc1Cn1cc(C#N)c2ccccc21,-5%,-3%,4.0%,-5
O=C(c1ccc(F)cc1F)N1CCCc2ccccc21,-5%,1%,4.4%,x
CCC(C)N(C(=O)COC(=O)COc1c(C)cc(C)cc1C)C1CCS(=O)(=O)C1 (stereo not given),x,-13%,u,x
Nc1nnc(CC(c2ccccc2)c2ccccc2)s1,0%,13%,1.5%,2
O=C(CSc1nnc2scc(-c3ccccc3)n12)NCc1ccco1,-5%,6%,5.7%,-13
Cc1ccc(Oc2nc(-c3ccccc3)ncc2S(C)(=O)=O)cc1,-5%,1%,1.6%,-1
Cn1c(CN2CCOCC2)nnc1SCc1cccc(F)c1,0%,26%,3.9%,-6
COC(=O)[C@H](CC(C)C)NC(=O)Nc1cccc(Br)c1,-10%,-4%,3.9%,2
CC1CCN(S(=O)(=O)c2ccc(NC(=O)c3cccs3)cc2)CC1,9%,-13%,-1.3%,4
Nn1c(Cc2ccccc2)n[nH]c1=S,-16%,1%,1.2%,7
CC(=O)COC(=O)C1=NN(c2ccccc2)C(=O)CC1,0%,18%,-1.8%,x
COc1ccc2c(c1)N(C(=O)CN1C(=O)C3CCCCC3C1=O)C(C)(C)C=C2C (stereo not given),-4%,u,2.3%,-1
CCOC(=O)N1CCC(=NNc2ccnc3cc(Cl)ccc23)CC1,10%,-3%,0.8%,4
CCCCCC(=O)NNC1CC(=O)N(c2cccc(OCC)c2)C1=O (stereo not given),-1%,3%,u,-5
Cc1nnc(NC(=O)c2cc(-c3ccncc3)nc3c(C)cccc23)s1,-38%,0%,0.7%,x
O=C(NCCC1=CCCCC1)C1CCCN(S(=O)(=O)c2ccccc2)C1 (stereo not given),-1%,7%,-2.8%,-4
CCCn1cc(CN2CCC(Cc3cccc(F)c3)(C(=O)OCC)CC2)c(C)n1,6%,-15%,3.1%,0
CCCCCCCCNC(=O)CC(NS(=O)(=O)c1ccc(NC(C)=O)cc1)C(C)C (stereo not given),4%,-16%,-4.6%,-4
